Assay outcomes: PubChem, National Center for Advancing Translational Sciences (NCATS)
miR-21 reporter: qHTS Assay for Modulators of miRNAs and/orActivators of miR-21; Potency, µM (top dose mostly 38.3 µM), for the others: at the top dose reporter change, positive = more light; 340,000 tested, under 10 active; HeLa miR-21 FLuc reporter, luciferase, 48 h; AID 2288, 2010; active = well fitted rising curve with a large enough effect; inconclusive = small, poorly fitted or top-dose-only effect; inactive = no such curve, though single readings can be large or run the other way;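 further: % of control where 0% means no effect; miR-21 action dims this reporter so a rising signal means less miR-21 action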
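HeLa miR-21-FLuc reporter line, endogenous miR-21; 2000 cells/well in DMEM/10% FBS; compound titration up to ~40uM final, 48 h, 37 degree Celsius; luciferase detection reagent, 15 min lysis, CCD luminescence.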
* hit, by the source's call; ? = inconclusive.

smiles	miR-21 reporter
O=C(OCC1CCCO1)c1ccc2c(c1)N(Cc1ccc(F)cc1)C(=O)c1ccccc1S2(=O)=O (stereo unspecified)	-1%
Fc1ccc(-c2csc(-c3nc(-c4ccc(Br)s4)cs3)n2)cc1	1%
COc1ccc(Nc2ncnc3c2nc2n3CCCCC2)cc1	-43%
Clc1ccc(-c2noc(-c3cccnc3NCc3ccco3)n2)cc1	1%
Cc1ccccc1C(=O)Nc1cccc(NC(=O)c2ccc(C(C)(C)C)cc2)c1	28%
Cn1c(=O)cc(SCC(=O)N2CCN(c3ccc(F)cc3)CC2)c2ccc(Cl)cc21	-1%
CCOC(=O)c1ccc(N2C(=O)c3[nH]nc(-c4ccc(C)cc4)c3C2c2cccs2)cc1 (stereo unspecified)	?
CCc1ccc(N2C(=O)CSC23C(=O)N(Cc2cccc(OC)c2)c2ccccc23)cc1 (stereo unspecified)	3%
COc1cccc(C2C=C(c3ccc(C)cc3)Nc3c(C(=O)Nc4ccc(F)cc4)cnn32)c1OC (stereo unspecified)	16%
Cc1ccc(NCc2cccn2-c2nnc(N3CCC(C(=O)NCc4ccccc4C)CC3)s2)cc1	12%

Of the compounds above, 2 contain a thiophene ring, fused or not.
smiles	miR-21 reporter
Fc1ccc(-c2csc(-c3nc(-c4ccc(Br)s4)cs3)n2)cc1	1%
CCOC(=O)c1ccc(N2C(=O)c3[nH]nc(-c4ccc(C)cc4)c3C2c2cccs2)cc1 (stereo unspecified)	?

The listing continues:
smiles	miR-21 reporter
COc1ccccc1NC(=O)CSc1nnc2c(n1)[nH]c1ccccc12	-3%
COc1ccc(Nc2c(-c3cc(Br)ccc3O)nc3ncccn23)cc1OC	1%
Cc1ccc(OCC(=O)Nc2cccc(OCc3cc(=O)n4cccc(C)c4n3)c2)cc1C	-1%
Cc1ccccc1CN1CCC(CNc2ncnc3onc(-c4ccc(F)cc4)c23)CC1	-8%
CCOc1ccc(N(CC)C(=O)c2cc3c(s2)-c2ccc(Cl)cc2SC3)cc1	-16%
CCCCNC(=O)c1nn(-c2ccc(C)cc2)c(=O)n(C)c1=O	-4%
CCOc1ccc(C2c3[nH]c4ccccc4c3CCN2C(=O)Cc2cccc(OCC)c2OCC)cc1 (stereo unspecified)	18%
CC(C)c1ccc2oc(-c3ccc(Cl)c(NC(=O)c4cccs4)c3)nc2c1	-33%
O=C(CN1CCN(Cc2ccccc2Cl)C1=O)NCc1ccccc1Cl	-6%
Cc1cc(C)c2c(=O)c3c(oc2c1)C(=O)N(CCCOC(C)C)C3c1ccccc1F (stereo unspecified)	-2%

Other entries.
smiles	miR-21 reporter
CCc1cccc(C)c1NC(=O)CCS(=O)(=O)c1ccc2c(c1)oc(=O)n2C	0%
COc1ccc(S(=O)(=O)NCc2ccc3c(c2)CCN3C(=O)c2ccccc2)cc1OC	5%
COc1ccccc1CNc1ncnc2c1cnn2-c1ccc(C)cc1	-49%
CCn1cc(C(=O)OCC(=O)Nc2cc(Cl)ccc2OC)c(=O)c2ccc(C)nc21	-6%
CC(=O)N1CCCc2cc(S(=O)(=O)N3CCCC(C(=O)Nc4cccc(Cl)c4C)C3)ccc21 (stereo unspecified)	15%
COc1cc(OC)cc(-c2cc3nc(C)c(CCC(=O)Nc4ccc(C(C)=O)cc4)c(C)n3n2)c1	?
O=C(CCC1N=C2c3ccccc3N=C(SCC(=O)Nc3ccccc3F)N2C1=O)NCc1ccccc1 (stereo unspecified)	-1%
CN(C)CCNC(=O)c1ccc(Cn2c(=O)c3cccn3c3cccnc32)cc1	-11%
CCCCn1cc(S(=O)(=O)c2ccc(C)c(C)c2)c(=O)c2cc(F)c(N3CCCC(C)C3)cc21 (stereo unspecified)	-6%
O=C(CCCn1c(=O)c2cccn2c2ccc(F)cc21)NCCc1ccccc1	-18%

Additional compounds:
smiles	miR-21 reporter
COc1ccc(Br)cc1S(=O)(=O)Nc1cc(-c2cn3ccccc3n2)ccc1C	8%
COc1ccc(CNC(=O)c2cnn(-c3ccc(C)cc3)c2-n2cccc2)cc1OC	9%
CCCCN(CC)C(=O)c1c[nH]c2ccc(S(=O)(=O)Nc3cccc(OC)c3)cc2c1=O	23%
CCOc1ccc(Nc2c(S(=O)(=O)c3ccc(C)cc3)cnc3ccccc23)cc1	21%
Cc1nn(-c2ccccc2)c2c1cc1c(=O)[nH]c(=O)nc-1n2-c1cccc(Cl)c1	-10%
CCCS(=O)(=O)Nc1cc2c(cc1NCc1ccccc1)n(C)c(=O)n2C	-36%
COCCCNC(=O)CSC1=Nc2ccccc2C2=NC(CCC(=O)NCc3ccccc3OC)C(=O)N12 (stereo unspecified)	-4%
CCOC(=O)c1c(NC(=O)CSc2nc(-c3ccccc3)cc(C(F)(F)F)n2)sc(C)c1C	-2%
CCc1ccc(NC(=O)CSc2nc3ncccc3[nH]2)cc1	-30%
CCC1CCc2nc3sc(C(=O)Nc4ccc(F)cc4F)c(N)c3cc2C1 (stereo unspecified)	-12%

Pulled by structure from the list above (2):
smiles	miR-21 reporter
CCOC(=O)c1c(NC(=O)CSc2nc(-c3ccccc3)cc(C(F)(F)F)n2)sc(C)c1C	-2%
O=C(OCC1CCCO1)c1ccc2c(c1)N(Cc1ccc(F)cc1)C(=O)c1ccccc1S2(=O)=O (stereo unspecified)	-1%

Next part
smiles	miR-21 reporter
COc1cc(OC)cc(-c2nc3nc(C)c(CCC(=O)NCCC(C)C)c(C)n3n2)c1	-1%
CC1CCN(C(=O)c2cc(-c3ccc(Br)cc3)on2)CC1	0%
COc1ccc(NC(=O)CCSc2nc(-c3ccco3)cc(C(F)(F)F)n2)cc1OC	-2%
Cc1cc(=O)c2cc(C(=O)Nc3cccc(C)c3C)ccc2[nH]1	-2%
CC(CCc1ccccc1)NC(=O)Cn1ncc2c3ccccc3n(Cc3ccccc3)c2c1=O (stereo unspecified)	4%
CCc1nc(Oc2cccc(F)c2)c2oc3ccccc3c2n1	-18%
CN(C)c1ccc(C2CC(c3c(O)n(C4CCCCC4)c(=O)[nH]c3=O)=Nc3ccccc3S2)cc1 (stereo unspecified)	-8%
COc1ccc(Cl)cc1NC(=O)Cn1cnc2sc(C)c(S(=O)(=O)N3CCN(c4ccccc4OC)CC3)c2c1=O	-1%
Cc1nc2ccccc2n1CCc1nc2c3ccccc3nc(SCc3cccc(F)c3)n2n1	-3%
CCOc1ccc(-c2cc(C(=O)NCc3ccc(OCC)c(OC)c3)[nH]n2)cc1	-7%

Going on with the list:
smiles	miR-21 reporter
CCCNC(=O)C(CC)n1nc(CC)n2c(cc3oc(C)cc32)c1=O (stereo unspecified)	4%
COc1ccc(C)cc1Nc1nc2c(S(=O)(=O)c3cc(C)ccc3C)nnn2c2ccsc12	-1%
COc1ccc(OC)c(NC(=O)CSC2=Nc3ccccc3C3=NC(CC(=O)NCCc4ccccc4)C(=O)N23)c1 (stereo unspecified)	-5%
COc1c(Cl)cc(C(=O)N(Cc2ccc(C)o2)C2CCS(=O)(=O)C2)cc1Cl (stereo unspecified)	1%
CCOc1ccc(-c2cn3c(n2)sc2cc(C(=O)NCCCN4CCCCCC4)ccc23)cc1	-2%
O=C(Cn1ccc2cc(S(=O)(=O)N3CCCCC3)ccc21)NCCc1ccc(Cl)cc1	15%
Cc1ccc2c(=O)c(C(=O)c3ccc(F)cc3)cn(CC(=O)NCc3ccccc3Cl)c2n1	-7%
Cc1cccc(-n2c3nc(=O)n(C)c(=O)c-3cc3c(C)nn(-c4ccccc4)c32)c1C	-10%
Cc1ccc(NC(=O)CCc2nc3cccnc3n2-c2ccccc2)cc1	-2%
Cn1cc(S(=O)(=O)N2CCCC2)cc1C(=O)Nc1ccc(F)cc1F	-8%

(next part)
smiles	miR-21 reporter
Cc1ccc(N(CC(C)C)S(=O)(=O)c2nnc(NC(=O)c3ccco3)s2)cc1	-19%
COc1ccc(NC(=O)CCN2CCN(CCO)CC2)c(OC)c1	-6%
Fc1ccccc1Cn1c(-c2ccccc2)nc2ccccc21	?
Cc1cnc(=O)[nH]c1SCC(=O)Nc1nc2ccccc2s1	-52%
Cn1c(=O)oc2cc(S(=O)(=O)N3CCC(C(=O)N4CCN(c5ccccc5F)CC4)CC3)ccc21	6%
O=C(CSc1nc2ccccc2nc1Cc1ccccc1)N1CCc2ccccc21	0%
Cc1ccccc1CNC(=O)c1cnc2sc(N3CCOCC3)nn2c1=O	-2%
O=C(Cn1ncc2c3ccccc3n(Cc3ccccc3F)c2c1=O)N1CCCCC1	?
COc1ccc(-c2cc(C(F)(F)F)nc(SCCC(=O)Nc3cc(C)ccc3O)n2)cc1	8%
COc1cc(C(=O)Nc2cc(C)ccc2OCc2cc(=O)n3c(C)csc3n2)cc(OC)c1OC	-8%

New compounds follow:
smiles	miR-21 reporter
CCOC(=O)c1c(-c2ccc(Br)cc2)csc1NC(=O)c1ccc(C(C)(C)C)cc1	-3%
CCN(CC)c1nn2c(=O)c(C(=O)NCCc3ccccc3C)cnc2s1	-3%
Cc1ccccc1Cn1c(C)c(CNCCCc2ccccc2)c(C(=O)O)c1C	-1%
COc1ccc(NC(=O)c2cc3c(=O)n(Cc4cccnc4)ccc3nc2C)cc1Cl	-22%
Cc1ccc(S(=O)(=O)CC(=O)Nc2nc3c(C)cccc3s2)cc1	1%
COc1ccc(-n2nc(-c3ccc(C)cc3)c3cnc4cc(F)c(F)cc4c32)cc1	3%
CCOc1cc(-c2nc(-c3ccc(-c4ccc(C)cc4)nc3OC)no2)cc(OCC)c1OCC	0%
Cc1ccc(-c2nc3sccn3c2Nc2ccc(C)c(C)c2)cc1	-31%
CC(=O)N1c2ccccc2CC1C(=O)N1CCN(c2cccc(C)c2C)CC1 (stereo unspecified)	13%
COCCNC(=O)CN1C(=O)c2cccnc2Sc2ccccc21	-6%

Next part
smiles	miR-21 reporter
COc1cccc(C(=O)NCCc2csc3nc(-c4ccccc4F)nn23)c1OC	3%
COc1ccc(C2c3c(oc4ccc(Cl)cc4c3=O)C(=O)N2CCCN(C)C)cc1OC (stereo unspecified)	-2%
COc1cccc(CNC(=O)c2ccc3nc(-c4ccc(F)cc4)c(-c4ccc(F)cc4)nc3c2)c1	16%
COc1ccccc1OCCCCn1c(C2CC(=O)N(c3ccccc3Cl)C2)nc2ccccc21 (stereo unspecified)	?
COc1cccc(-c2nc(SCC(=O)Nc3ccc4c(c3)OCCO4)c(-c3ccccc3)[nH]2)c1	?
COC(=O)c1sc2cccc(F)c2c1S(=O)(=O)Nc1cc(OC)cc(OC)c1	6%
Cc1cccc(C(=O)Nc2ccc(S(=O)(=O)N(Cc3ccccc3)c3ccccc3)cc2)c1	-6%
O=C1CC(c2cccc(F)c2)c2c(n3ncnc3[nH]c2=O)N1 (stereo unspecified)	-1%
CCN(CC)CCCNC(=O)CCCn1c(=O)[nH]c2ccc(Br)cc2c1=O	-1%
O=C(CSc1nccn1-c1ccccc1)Nc1nc2ccccc2s1	-62%

Additional results
smiles	miR-21 reporter
CCN1c2ccccc2-c2nc(SCC(=O)Nc3cccc(C(F)(F)F)c3)ncc2S1(=O)=O	15%
O=C(CCC1N=C2c3ccccc3N=C(SCc3ccc(F)cc3)N2C1=O)NC1CCCCC1 (stereo unspecified)	4%
CCCN1C(=O)C(O)(CC(=O)c2ccc(C(C)C)cc2)c2ccccc21 (stereo unspecified)	25%
CCc1ccc(NC(=O)CSc2nc(=O)n(Cc3ccncc3)c3c2CCC3)cc1	4%
CC1CCN(S(=O)(=O)c2csc(C(N)=O)c2)CC1	0%
CCCN(CCC)S(=O)(=O)c1ccc(C(=O)Nc2sc3c(c2C(=O)OC)CCN(CC)C3)cc1	22%
Cc1ccc(-c2cn3c(n2)sc2cc(C(=O)NCCCN4CCCCC4)ccc23)cc1	-2%
CCOc1ccc(NC(=O)CCc2nnc3n(C)c(=O)c4sccc4n23)cc1	0%
Cc1nc2cc(-c3ccccc3)nn2c(C)c1CCC(=O)NCc1cccc(Cl)c1	4%
Cn1ccc2cc(S(=O)(=O)N3CCN(C(=O)Nc4ccc(F)cc4F)CC3)ccc21	3%

(more compounds)
smiles	miR-21 reporter
COc1ccc(CCNC(=O)c2ccc3c(c2)CCN3S(=O)(=O)c2ccc(C)cc2)cc1OC	19%
COc1ccc2c(CNCc3cccs3)c(C(=O)O)n(Cc3ccccc3F)c2c1	-2%
O=C(CSc1n[nH]c(-c2ccccc2)n1)NCCc1ccccc1	9%
CCc1nn(CC(=O)N2CCCCC2)c(=O)c2cc3occc3n12	-4%
Cc1cc(Nc2ccc(C(C)C)cc2)nc(-n2nc(C)cc2C)n1	?
Cc1cc2ccccc2n1-c1ccc(C(=O)N2CCCCC2)s1	3%
COc1cccc(N2CC(NC(=O)c3ccc(S(=O)(=O)N4CCCC4)cc3)CC2=O)c1 (stereo unspecified)	-2%
O=C(NCCc1ccccc1)C1CCC(CNS(=O)(=O)c2ccc(Cl)cc2)CC1 (stereo unspecified)	-17%
Cc1ccc(-c2cc(C(=O)N3CCN(S(=O)(=O)c4ccc(Br)cc4)CC3)[nH]n2)cc1C	3%
O=C(NCc1ccc(F)cc1)c1cc2n(n1)CCCN(Cc1ccc(F)cc1)C2=O	7%

Entries above with a CF3 group:
smiles	miR-21 reporter
CCOC(=O)c1c(NC(=O)CSc2nc(-c3ccccc3)cc(C(F)(F)F)n2)sc(C)c1C	-2%
COc1ccc(NC(=O)CCSc2nc(-c3ccco3)cc(C(F)(F)F)n2)cc1OC	-2%
COc1ccc(-c2cc(C(F)(F)F)nc(SCCC(=O)Nc3cc(C)ccc3O)n2)cc1	8%
CCN1c2ccccc2-c2nc(SCC(=O)Nc3cccc(C(F)(F)F)c3)ncc2S1(=O)=O	15%

Individual results from the entries so far.
Reading for COc1ccc(CCNC(=O)c2ccc3c(c2)CCN3S(=O)(=O)c2ccc(C)cc2)cc1OC under miR-21 reporter: 19%
Reading for COc1cccc(N2CC(NC(=O)c3ccc(S(=O)(=O)N4CCCC4)cc3)CC2=O)c1 (stereo unspecified) under miR-21 reporter: -2%

These rows are one share of the data; rates above refer to the full screens.
